Mtb bLac sens – beta-lactam sensitization of Mtb H37Rv; AID 434955; actives 0.27% (n = 330,000); M. tuberculosis H37Rv growth with meropenem, percent inhibition; hits of this screen are not shown here; inhibition, % at 25 µM;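 active = about 74% or more and at least 40 points above the plate without the antibiotic, then above 30% in a dose series; inconclusive = first-round hits that could not be retested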;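 also: growth measured after seven days incubation then overnight dye step; 0% = bacteria only wells and 100% = bacteria with antibiotic; twin plates without the antibiotic show which effects depend on it; some results filed as inactive read as strong as hits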
Mtb growth – M. tuberculosis H37Rv growth inhibitors, H37Rv strain (AID 1626). inhibition, % at 10 µM; hits with a dose series show IC50 in µM. actives 0.95% (n = 220,000). M. tuberculosis H37Rv growth inhibition; higher % means a stronger effect;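 active = confirmed in a dose series; inconclusive = inhibition above 80% but not taken into the dose series; inactive = below 80% or under 30% at every dose of the series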;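 also: bacteria incubated seven days before Alamar blue readout; 0% = bacteria only wells and 100% = bacteria with antibiotic wells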
Arbovirus anti – arbovirus infection inhibition | AID 1251 | actives 0.37% (n = 200,000) | arbovirus infection cell-based antiviral screen | inhibition, % at 10 µM;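 active = inhibition from about 30%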;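 also: bluetongue infection of BSR cells; cell survival read as ATP light after 72 h; 0% = infected wells without compound and 100% = uninfected wells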
RecA splice inh – blocks M. tuberculosis RecA intein splicing | cell-free RecA intein splicing, fluorescence | AID 2221 | inhibition, %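 (about 9 µM by stock and volumes)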 | actives 0.75% (n = 290,000) | P9WHJ3; in the data active = inhibition above about 30%; inconclusive = no clear call, values can overlap the other calls;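 also: 0% = vehicle wells and 100% = reference inhibitor control wells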
Target sequence (P9WHJ3 whole entry, looked up, canonical isoform): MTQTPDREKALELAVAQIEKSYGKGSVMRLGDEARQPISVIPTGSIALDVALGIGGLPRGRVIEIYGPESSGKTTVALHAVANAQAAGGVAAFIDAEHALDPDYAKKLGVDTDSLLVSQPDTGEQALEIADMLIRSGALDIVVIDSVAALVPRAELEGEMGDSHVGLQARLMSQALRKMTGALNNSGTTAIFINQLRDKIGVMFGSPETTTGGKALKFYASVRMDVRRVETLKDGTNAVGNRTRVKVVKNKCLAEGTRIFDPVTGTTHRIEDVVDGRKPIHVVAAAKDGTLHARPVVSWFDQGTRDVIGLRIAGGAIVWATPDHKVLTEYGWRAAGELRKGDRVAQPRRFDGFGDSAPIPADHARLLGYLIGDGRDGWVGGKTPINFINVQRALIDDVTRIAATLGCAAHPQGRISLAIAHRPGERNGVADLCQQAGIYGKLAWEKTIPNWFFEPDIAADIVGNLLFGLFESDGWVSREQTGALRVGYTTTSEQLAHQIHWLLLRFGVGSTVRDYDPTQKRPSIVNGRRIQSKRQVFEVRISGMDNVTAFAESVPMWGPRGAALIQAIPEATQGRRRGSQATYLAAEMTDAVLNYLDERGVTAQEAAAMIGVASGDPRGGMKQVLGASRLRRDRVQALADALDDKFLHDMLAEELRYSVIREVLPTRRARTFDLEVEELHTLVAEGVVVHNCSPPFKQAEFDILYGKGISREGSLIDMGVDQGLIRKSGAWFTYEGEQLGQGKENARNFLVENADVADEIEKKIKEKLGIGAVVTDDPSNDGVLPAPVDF
YopH PTP inh – YopH (Yersinia) phosphatase inhibition. fluorescence Ex485/Em525. inhibition, %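 (about 10 µM by stock and volumes)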. actives 0.16% (n = 140,000);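 active = inhibition of 50% or more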;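 also: controls were vehicle for no effect and minimum signal wells for full effect; inactives centre near -20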
Arbovirus anti repeat – recorded beside Arbovirus anti, whose call it bears; inhibition, %; measured here: 10K subset replicate screen; many hits read low in the repeat;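 first of two repeat runs on a subset; 0% = infected and 100% = uninfected wells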
* = called active by the depositor; ? = inconclusive; nt = no result given; & = joins results of further samples. Not all compounds are listed; count on the stated rates, not on these rows.

SMILES	Mtb bLac sens	Mtb growth	Arbovirus anti	RecA splice inh	YopH PTP inh	others
CCS(=O)(=O)N1CCC(C(=O)NCC2CCCO2)CC1 (stereo not given)	0	-5%	2	1.2	-27
O=C(CSc1nnc(SCc2cccc3ccccc23)s1)N/N=C/C=C/c1ccccc1[N+](=O)[O-]	3	2%	-8	-4.9	-10
CCN(CC(=O)Nc1c(F)cccc1F)C(=O)CN1C(=O)c2ccccc2C1=O	-2	nt	nt	-2.3	nt
CC(C)c1nc(SCC(=O)Nc2c[nH]c(=O)[nH]c2=O)c2cnn(-c3ccccc3)c2n1	-2	-4%	-7	-2.1	nt
COc1cccc(NC(=O)c2ccccc2SC)c1	4	-4%	3	-1.0	-19
Cc1cc(NC(=O)CSc2nccn2C)n(-c2ccccc2)n1	-12	-4%	nt	-2.7	nt
CCN(Cc1ccncc1)Cc1cn[nH]c1-c1cc(OC)c(OC)c(OC)c1	-3	5%	5	-0.9	nt
Cc1cc(N(C)C)c(C#N)c(N2CCOCC2)n1	-7	-7%	0	-1.9	-29
CCN1CCN(Cc2ccccc2NC(=O)Nc2ccc(C)cc2)CC1	-1	-11%	3	-1.9	-12
CC(C)C1CC(CCN2CCCCC2)(c2ccccc2)CCO1 (stereo not given)	-3	-5%	5	5.8	nt
COCC(=O)Nc1ccccc1-c1ccccc1	-1	7%	-5	1.5	nt
COc1ccc(CNC(=O)CCC(=O)N2CCN(S(=O)(=O)c3ccc(Cl)cc3)CC2)cc1	3	-6%	0	-1.8	nt
CN(Cc1ccccc1)c1ccc(C(CC(N)=O)NC(=O)c2ccc(Br)cc2)cc1[N+](=O)[O-] (stereo not given)	94	nt	nt	9.1	nt
COc1ccc(OC)c(-c2cc(C(F)(F)F)c3c(n2)sc2c(O)cc(=O)[nH]c23)c1	13	-2%	10	-48	-36
Nc1c(-c2ccccc2)n[nH]c1-c1ccccc1	6	-10%	2	-0.5	-34
Cc1cc(C)c(C(=O)N2CCCC(Nc3ccc(F)cc3)C2)o1 (stereo not given)	-6	nt	nt	-1.2	nt
Cc1ccccc1C(=O)N1CCC(C(=O)Nc2nc3ccc(F)cc3s2)CC1	21	nt	nt	-1.3	nt
O=C(NC1CCCCC1)NC1CC2CCC(C1)N2C(=O)NCc1ccccc1 (stereo not given)	-8	nt	3	-2.7	-2
C#CCN(C(=O)c1ccc(OC2CCN(Cc3ccccn3)CC2)cc1)C1CCCCC1	11	nt	nt	1.3	nt
CC1CC(C)(C)CC2(C1)NC(=O)N(CC(=O)NCc1ccccc1F)C2=O (stereo not given)	3	nt	nt	3.0	nt
COC(=O)[C@]1(C)CCC[C@@]2(C)C3CC[C@@]4(C)C[C@]3(CC[C@H]12)C[C@H]4O (stereo not given in full)	1	nt	nt	13	nt
CN(Cc1ccccc1)S(=O)(=O)c1cccc2nsnc12	-5	6%	-3	0.1	nt
OC(COCc1ccccc1)CN1CCN(c2ccccc2F)CC1 (stereo not given)	-9	-7%	7	1.7	-23
COc1ccc(CCNS(=O)(=O)c2ccc3c(c2)CCN3C(=O)CCC(=O)O)cc1OC	-21	5%	3	2.9	-15
O=c1cc(-c2ccc(O)cc2)oc2ccccc12	-9	25%	-6	0.7	nt	Arbovirus anti repeat=-5
COc1ccc(CCNC(=O)Cn2cccc2C(=O)c2ccccc2)cc1OC	-7	-3%	0	-1.9	-30
CC(=O)N1CCc2cc(Br)cc(S(=O)(=O)N3CCN(C(=O)c4ccco4)CC3)c21	-2	2%	18	5.0	-29
Cc1nnc(SCc2nc3ccccc3[nH]2)s1	2	-6%	0	-0.7	-36
OCC[C@@H]1C[C@H](O)[C@@H](O)[C@]2(CCc3ccccc3CO2)O1	-1	nt	nt	-5.0	nt
O=C1CCCC/C1=C\Nc1ccc(C(=O)O)c(O)c1	98	75%	nt	-0.9	nt
COc1ccc(CNn2c(-c3cccs3)nc3ccccc3c2=O)cc1OC	51	4%	13	1.5	nt
COc1ccc(C(=O)CSc2nc(C(C)(C)C)nc3ccccc23)cc1	8	5%	-8	6.8	nt
CCOc1ccc(CCNC(=O)C2CCCN2C(=O)OCc2ccccc2)cc1OCC (stereo not given)	-2	0%	-3	-4.5	nt
CC1CCC(N2CCN(S(=O)(=O)Cc3ccccc3)CC2)CC1 (stereo not given)	-2	nt	nt	-1.8	nt
C=C(C)Cn1c(N2CCN(CC)CC2)nc2c1c(=O)[nH]c(=O)n2C	-4	3%	-1	-0.5	-35
O=C(COc1ccc(Cl)cc1Cl)N1CCN(c2ccccn2)CC1	34	6%	5	-4.7	nt
Cc1cccc(S(=O)(=O)Nc2cccc(-c3cn4ccsc4n3)c2)c1	-3	-7%	9	4.6	-27
COc1ccc(Cl)cc1NS(=O)(=O)N1CCOCC1	-16	nt	nt	-3.6	nt
Cc1ccc(CSCC(=O)Nc2ccc(N3CCOCC3)cc2N2CCOCC2)cc1	-2	nt	nt	0.3	nt
CCOC(=O)C(CCc1nnc(N)s1)C(=O)OCC	-2	-1%	-1	4.0	-31
CC/C(=N\NC(=O)CNC(=O)/C=C/c1ccco1)c1ccccc1	-5	-7%	1	nt	-7
O=C(/C=C\NCC(=O)c1ccccc1)c1ccc2ccccc2c1	1	1%	8	3.2	-9
O=C(N/N=C/c1ccco1)c1ccc2nc[nH]c2c1	-12	-5%	nt	1.2	nt
COc1cccc(C2C(C#N)=C(C)NC3=C2C(=O)CC(C)(C)C3)c1 (stereo not given)	1	0%	-2	-14	-24
COc1ccc(-c2cc3ccccc3n2CC(O)Cn2nc(C)cc2C)cc1 (stereo not given)	-3	10%	28	4.1	-2	Arbovirus anti repeat=-11
NC(=O)CC(CC(=O)OCc1ccccc1)c1ccccc1 (stereo not given)	1	nt	nt	0.7	nt
COc1ccc(C(=O)NCCc2c[nH]c3ccc(OC)cc23)cc1	2	nt	nt	0.0	nt
N#CCC(=O)Nc1ncn(Cc2ccccc2Cl)n1	-12	-1%	-1	-1.9	-31
Cc1ccc(NC(=O)CS(=O)CC(=O)N2CCN(c3ccccc3)CC2)cc1 (stereo not given)	-6	nt	nt	-1.4	nt
CCN1CCN(S(=O)(=O)c2ccc(Cl)c(C(=O)Nc3ccccc3N3CCCCC3)c2)CC1	-5	nt	nt	8.4	nt
CC(C)c1ccc(/C=N/NC(=O)c2ccccn2)cc1	99	33%	nt	-0.8	nt
CCOc1ccccc1NS(=O)(=O)c1ccc2c(c1)NC(=O)CCS2	-7	nt	nt	-0.8	nt
Cc1ccccc1NS(=O)(=O)c1ccc2c3c(cccc13)C(=O)N2C	?	nt	nt	-0.9	nt
CCCC(=O)Nc1ccc(NC(=O)c2cccs2)cn1	-7	3%	-11	nt	-11
Cc1cc(C)cc(NC(=O)CSc2nccn2Cc2ccco2)c1	-3	nt	nt	4.2	nt
O=c1c2ccccc2[nH]c(=S)n1CCCN1CCOCC1	-9	-4%	12	3.4	-19
O=C(NNC(=O)c1cc(Cl)nc2ccccc12)c1ccccc1F	-8	nt	nt	0.5	nt
O=C(NCC1CCCO1)/C(=C\c1ccccc1F)NC(=O)c1ccccc1 (stereo not given)	3	nt	nt	2.0	nt
COC(=O)[C@@H](NC(=O)Nc1cccc(Br)c1)C(C)C	-5	10%	-4	0.3	-8
CC(=O)Nc1ccc(NC(=O)Cn2nc([N+](=O)[O-])c(Br)c2C)cc1	-4	-1%	13	-1.8	nt

An excerpt from above in order of count of non-hydrogen atoms, low to high:
SMILES	Mtb bLac sens	Mtb growth	Arbovirus anti	RecA splice inh	YopH PTP inh	others
CC(C)c1ccc(/C=N/NC(=O)c2ccccn2)cc1	99	33%	nt	-0.8	nt
COc1ccc(C(=O)NCCc2c[nH]c3ccc(OC)cc23)cc1	2	nt	nt	0.0	nt
Cc1ccc(NC(=O)CS(=O)CC(=O)N2CCN(c3ccccc3)CC2)cc1 (stereo not given)	-6	nt	nt	-1.4	nt
CCN1CCN(S(=O)(=O)c2ccc(Cl)c(C(=O)Nc3ccccc3N3CCCCC3)c2)CC1	-5	nt	nt	8.4	nt

Remaining list, next part
SMILES	Mtb bLac sens	Mtb growth	Arbovirus anti	RecA splice inh	YopH PTP inh	others
COc1ccc(C=O)cc1CSc1ccccn1	-9	2%	nt	-0.9	nt
COc1ccc(OC)c(NC(=O)CSc2ncnc3c2cnn3-c2ccccc2Cl)c1	-7	3%	17	1.4	38
CC(=O)Nc1ccc(NC(=O)c2ccc3c(c2)C(=O)N(c2ccccc2C)C3=O)cc1	4	nt	nt	3.0	nt
COc1cccc(CNC(=O)C2CCCN(S(=O)(=O)N3CC(C)CC(C)C3)C2)c1 (stereo not given)	0	nt	nt	-1.6	nt
CC(=O)NCC1CCCN(C(=O)c2ccc(OC3CCN(Cc4ccccn4)CC3)cc2)C1 (stereo not given)	7	nt	nt	-0.4	nt
Cc1cc(NC(=O)CSc2ccc3nnc(-c4ccccn4)n3n2)no1	-5	4%	5	15	-54	Arbovirus anti repeat=0
O=C(COC(=O)c1ccc([N+](=O)[O-])o1)Nc1cccc(S(=O)(=O)N2CCCCC2)c1	60	-7%	9	6.2	nt
CCC(C)c1ccc(O)c(NC(=S)NC(=O)c2cccnc2)c1 (stereo not given)	97	?	-13	0.2	nt
CCn1c(SCC(=O)Nc2nccs2)nnc1-c1cccnc1	-3	nt	nt	-1.1	nt
CCOC(=O)C1=C(N)Oc2ccccc2C12C(=O)N(CC(=O)OC)C(CC(=O)OC)=C2C(=O)OC (stereo not given)	-4	-3%	3	0.9	7
CC1CCCCN1C(=O)c1ccc(OC2CCN(S(=O)(=O)N(C)C)CC2)cc1 (stereo not given)	5	-9%	-1	-1.0	nt
CC(=O)C(=Nc1ccc(Cl)cc1Cl)NNc1cccc(Cl)c1	94	20%	-32	34*	-6
O=C(c1ccc2c(c1)OCCO2)C1CCN(S(=O)(=O)c2cccc(F)c2)CC1	-10	-2%	-24	4.1	-1
Cc1c(C)[n+](=O)c(-c2ccco2)c(C)n1[O-]	-5	1%	3	1.9	-28
O=S(=O)(c1cccc2c(S(=O)(=O)N3CCCC3)cccc12)N1CCCC1	-12	2%	-4	0.7	3
CCN(CC(=O)Nc1c(F)cccc1F)C(=O)c1ccc(N2CCCC2)c([N+](=O)[O-])c1	-7	nt	nt	6.0	nt
COc1ccc(/C=C2\SC(=O)N(CCNC(=O)C3CC(=O)N(c4ccccc4)C3)C2=O)cc1 (stereo not given)	2	-2%	-1	0.1	-48
COc1ccc(CCNC(=O)CSc2nc3[nH]ncc3c(=O)n2-c2ccccc2OC)cc1OC	-3	3%	4	11	nt
COC(=O)c1cc(NC(=O)c2c(-c3c(Cl)cccc3Cl)noc2C)ccc1N1CCOCC1	-1	7%	nt	2.8	nt
O=C(CSc1nnc(C2CC2)n1Cc1ccccc1)Nc1cccnc1Cl	-4	-1%	9	2.9	nt
O=C1c2ccccc2S(=O)(=O)N1CC(O)COc1ccc(Br)cc1 (stereo not given)	0	-7%	3	nt	1	Arbovirus anti repeat=10
O=C(NCc1ccco1)Nc1ccc([N+](=O)[O-])cc1	8	1%&6%	6	nt	nt
O=C1C(=O)N(c2ccccn2)C(c2ccc(F)cc2)/C1=C(/O)c1ccc(Br)cc1 (stereo not given)	-2	nt	nt	1.3	nt
CC(=O)N1CCC2(CC1)C/C(=N\NC(=S)Nc1ccccc1C)c1cc(O)ccc1O2	0	3%	2	-21	nt
S=c1[nH]nc(COc2ccccc2)n1/N=C/c1ccccn1	2	1%	-6	-2.3	-15
O=C(N/N=C/c1cccc(Oc2ccccc2)c1)c1ccccc1Br	-6	9%	8	12	-31
Cc1ccc(-n2nc(C)c3c(=O)[nH]c(C(F)(F)F)nc32)cc1	1	6%	-8	3.4	-29
CC(C)Cn1cnc2c(c1=N)C(c1ccccc1)C1=C(CC(C)(C)CC1=O)O2 (stereo not given)	0	5%	nt	-1.6	nt
Cc1nc(SCn2nnc3ccccc3c2=O)nc(C)c1C	7	-1%	-2	0.9	-36
CCN(CC(=O)Nc1c(F)cccc1F)C(=O)/C=C/c1cn(Cc2ccccc2)nc1-c1cccnc1	1	nt	nt	0.4	nt
O=C(CSc1nnc2ccccn12)Nc1ccc2c(c1)OCO2	-4	-5%	6	-0.2	nt
Cc1csc(=Nc2ccccc2)n1CCO	4	-8%	-14	0.3	-3
COc1ccccc1NC(=O)Cn1c(=O)n2nc(C)nc2c2ccccc21	1	-2%	4	-3.2	-42	Arbovirus anti repeat=4
Cc1cc(C)n(/N=C/c2cccs2)c(=O)c1C#N	-4	-6%	0	nt	-26
CC1C/C(=N\NC(=O)CCc2ccc(S(=O)(=O)N3CCOCC3)cc2)CC(C)(C)C1 (stereo not given)	-2	19%	-8	-0.3	-29
CC(=O)c1c(C(C)=O)c(C)n(C2CCCCC2)c1C	-4	3%	-1	-1.4	7
C=CCNc1nc(C)nc(OC)n1	-13	-1%	4	0.5	-41
